Bioassay records from PubChem.
S aureus helic: inhibitors of S. aureus replicative helicase, primary screen, biochemical, fluorescence unwinding readout. replicative DNA helicase (DnaC/DnaB), Staphylococcus aureus. purified S. aureus helicase, fluorescence unwinding assay; about half of the hits fall short of the stated cut. inhibition, %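 (tested at about 80 µM)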. hit rate 0.05% among 120,000;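 active = both duplicates at 50% or more, or one of them with a favoured structure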;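 note: 0% = mean of negative control wells and 100% = mean of positive control wells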
MgrA DNA FP: S. aureus MgrA activity modulators, primary screen, biochemical, S. aureus Newman, fluorescence polarization; MgrA-DNA binding; inhibition, %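 (about 10 µg/mL by stock and volumes)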; hit rate 0.13% among 84,000;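 active = above 50% in either of two replicates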;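 note: 0% = protein plus DNA without compound and 100% = DNA alone without protein; higher means less MgrA bound to DNA so lower polarization; one replicate is shown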
Numbers without * were called inactive; x = no result given.

Molecule	S aureus helic	MgrA DNA FP
COc1ccc(/C(C#N)=C/c2ccc3c(c2)OCO3)cc1OC	11.0	0.6
O=C(CCCc1nnc2c(=O)n(-c3ccc(Cl)cc3)ccn12)N1CCc2ccccc2C1	-10.0	x
CC1(C)CC(=O)C(Sc2ccccc2)=C(O)C1	x	-5.5
O=C(O)Cn1c(=O)oc2cc(S(=O)(=O)N3CCCCCC3)ccc21	-6.0	x
Cc1ccc(Cl)cc1N1CCN(C(=O)/C=C/c2ccc(S(=O)(=O)NCc3ccco3)cc2)CC1	6.0	x
Cc1nc2c(=O)oc3ccccc3c2n1C(C)C	12.0	1.0
CC(=O)Nc1ccc(C(=O)OCC(=O)C(C)(C)C)cc1	3.0	-1.7
CCn1cc(C(=O)NC2CCCC2)c(=O)c2cc(S(=O)(=O)N3CCCCC3)ccc21	3.0	-3.2
CCCCN(CC)C(=O)c1cn(CC)c2nc(C)ccc2c1=O	0.0	x
Cc1ccc(CN2C(=O)CCC2C(=O)NCCCN2CCCCC2)cc1 (stereo unspecified)	-5.0	x
N#Cc1c(/N=C/c2c(O)[nH]c(=O)[nH]c2=O)sc2c1CCC2	3.0	x
O/N=C1\CCCCc2c1[nH]c1ccc(C3CCCCC3)cc21	8.0	-4.3
COc1ccc(NC(=O)[C@@H](NC(=O)c2ccc(C)cc2)C(C)C)cc1OC	5.0	x
CSc1cccc(NS(=O)(=O)c2ccc(-n3cccn3)cc2)c1	9.0	0.8
O=C(NC1CC1)c1ccc2c(c1)N(Cc1ccccc1)C(=O)CS2	-5.0	-0.8
Cc1cccc(Oc2ccc(N3C(=O)C4C5C=CC(C5)C4(C)C3=O)cc2)c1C (stereo unspecified)	6.0	0.9
CN(C)CC(=O)Nc1ccc(Cl)cc1	18.0	2.5
COc1ccc(C2N3CC(C)(C)CN23)cc1OC (stereo unspecified)	18.0	x
CC(=O)N1CCN(C(=O)COc2ccc(C#N)cc2)CC1	-1.0	1.0
CC1CCN(C(=O)CN2C(=O)c3ccccc3S2(=O)=O)CC1	0.0	x
O=C(O)CC1(CC(=O)Nc2ccc(Br)cc2)CCCC1	15.0	x
CCNC(=S)Nc1ccc(N2CCCCC2)cc1	5.0	x
Cc1[nH]c2ccccc2c1SCCNC(=O)Cc1ccccc1	3.0	x
Cc1ccc(S(=O)(=O)N2CCN(C/C=C/c3ccccc3)CC2)c(C)c1C	5.0	0.3
c1cc2c(cc1C1CCCN1)OCCCO2 (stereo unspecified)	-10.0	x
COc1ccccc1NC(=O)C1CC(=O)NC(=Nc2ccc(C)cc2)S1 (stereo unspecified)	-26.0	x
CC(C)(C)NC(=O)NCCc1ccccc1	x	0.2
Cc1ccc(OC(C)C(=O)N(C)c2ccccc2)cc1 (stereo unspecified)	3.0	-3.9
CC1CCCN(Cc2cn3c(-c4cccc(Br)c4)nnc3s2)C1 (stereo unspecified)	-23.0	x
COc1ccc(-c2ccc(=O)[nH]n2)cc1OC	-16.0	x
CCOC(=O)c1sc(NC(=O)CSc2nnc(Cn3nnc4ccccc43)n2C)nc1C	-1.0	-0.4
COc1ccccc1C(=O)Nc1cnn(Cc2ccccc2C)c1	26.0	-1.8
CCc1c2c(nn1-c1cc(Cl)ccc1OC)CCCC2=O	4.0	-1.4
COc1cccc(NC2=NCCCCC2)c1	-13.0	-1.5
COCCNS(=O)(=O)c1ccc2c(c1)Cc1cc(S(=O)(=O)NCCOC)ccc1-2	7.0	0.3
Cc1ccc(CNC(=O)C2CNc3cc(C)ccc3O2)cc1 (stereo unspecified)	7.0	-0.3
CCn1c2ccccc2c2nnc(N3CCc4ccccc4C3)nc21	0.0	-2.2
C=C1SC(Nc2cccc(C(F)(F)F)c2)=NC12CCCCC2	x	-1.2
COc1ccccc1/C=C(/C(=O)O)c1ccccc1	2.0	0.9
CC(C)c1nnc(NC(=O)c2c(F)cccc2F)s1	11.0	x
O=C1c2ccccc2OCC12COC(c1ccccc1)OC2 (stereo unspecified)	x	-0.8
O=S(=O)(Nc1ccc2c(c1)OCCO2)c1cnc[nH]1	14.0	x
COc1cccc(NC(=O)COC(=O)CC23CC4CC(CC(C4)C2)C3)c1	-32.0	-0.6
O=C(/C=C/c1c(Cl)nc2ccccn12)N1CCCCC1	1.0	x
Cc1nc(Cl)c2cc(-c3ccccc3)sc2n1	-15.0	x
Cc1cc(-c2noc(-c3cccc(F)c3)n2)c2ccccc2n1	-27.0	x
NC(=O)c1ccc(CC(=O)c2ccc(Cl)cc2)cc1	x	3.3
COc1ccccc1Nc1ncc(C(=O)NCCc2ccc(OC)c(OC)c2)c2ccccc12	6.0	-1.6
CC1CC(OCC(O)C[N+]2(C)CCOCC2)CC(C)(C)C1 (stereo unspecified)	-8.0	0.6
CC(=O)OCC12COC3c4ccccc4OC(C)(CC1C)C3C2C (stereo unspecified)	6.0	x
COC(=O)COc1cc(C)ccc1C	19.0	-0.9
S=c1cc(-c2ccc(Cl)cc2)ss1	x	3.2
CCNS(=O)(=O)c1ccc(NC(=O)Nc2cccc(Cl)c2Cl)cc1	5.0	-0.1
CCCCCC(O)c1cccc(OCc2ccc3ccccc3n2)c1 (stereo unspecified)	x	-2.0
COCCn1c(C)cc(/C=C2\C(=O)Nc3cc(Cl)ccc32)c1C	1.0	x
COc1cccc(Nc2nnc(-c3cc4cccc(OC)c4oc3=O)s2)c1	-15.0	0.1
CC(=O)Nc1c(O)[nH]c2ccccc12	9.0	x
CS(=O)(=O)Nc1ccc(/C(N)=N/O)cc1	-20.0	x
CC(C)OC(=O)c1cc2ccccc2oc1=O	-17.0	x
Cc1nn(C)c(NC(=O)c2ccccc2Cl)c1Br	x	-0.4

Going on with the list.
Molecule	S aureus helic	MgrA DNA FP
O=C1/C(=C/c2ccc(F)c(F)c2)CCC/C1=C\c1ccc(F)c(F)c1	10.0	1.8
O=S(=O)(/N=C/c1cccnc1)c1cccs1	-21.0	x
COc1ccc(OCCSc2nnc(C(F)(F)F)n2N)cc1	-8.0	x
O=S1(=O)CCC(Cc2nc3ccccc3[nH]2)C1 (stereo unspecified)	10.0	x
Cc1ccc(-n2nc3c(c2NC(=O)Cc2ccccc2)CSC3)c(C)c1	3.0	1.4
Cc1ccc(CCn2c(C)c(C)c3ccccc32)cn1	8.0	-1.3
CC(C)(C)C(=O)Cn1nnc(-c2ccc(C(F)(F)F)cc2)n1	9.0	x
Cc1onc(-c2ccccc2)c1-c1nnc(-c2ccccc2C(F)(F)F)o1	-21.0	x
Cc1cc2cc(CCNC(=O)c3c(-c4ccccc4Cl)noc3C)c(=O)[nH]c2cc1C	-13.0	x
Cc1ccc2[nH]cc(NC(=O)NCCO)c(=O)c2c1	2.0	0.4
CC(=O)NC(C)C(=O)N1CCc2ccccc2C1 (stereo unspecified)	14.0	x
O=c1c(N2CCOCC2)nsn1Cc1ccccc1	10.0	x
Clc1ccc(-c2csc(-c3cccnc3)n2)s1	x	-2.5
CCCN1CC=C2C(C#N)=C(N)C(C#N)(C#N)C(c3cccc(OC)c3)C2C1 (stereo unspecified)	2.0	1.6
NNC(=O)c1c(O)c2c([nH]c1=O)CCCC2	10.0	0.2
Nc1cc(C(F)(F)F)c[nH]c1=O	14.0	x
O=C(O)c1cccc(Nc2nc(-c3cccs3)cs2)c1	18.0	x
COc1ccc(C(=O)NCc2ccc3c(c2)OCO3)cc1	11.0	3.4
CCNC(=O)N1c2cc(C)ccc2C(C)=CC1(C)C	1.0	x
COC(=O)c1c(NC(=O)CCN2C(=O)c3ccccc3C2=O)sc2c1CCC2	x	0.2

Entries of single compounds, looked up by structure. Order of values: S aureus helic | MgrA DNA FP
Results for COc1ccc(C(=O)NCc2ccc3c(c2)OCO3)cc1 → 11.0 | 3.4
Results for COc1cccc(NC2=NCCCCC2)c1 → -13.0 | -1.5
Results for CCCN1CC=C2C(C#N)=C(N)C(C#N)(C#N)C(c3cccc(OC)c3)C2C1 (stereo unspecified) → 2.0 | 1.6
Results for O=C(CCCc1nnc2c(=O)n(-c3ccc(Cl)cc3)ccn12)N1CCc2ccccc2C1 → -10.0 | x
Results for Cc1cccc(Oc2ccc(N3C(=O)C4C5C=CC(C5)C4(C)C3=O)cc2)c1C (stereo unspecified) → 6.0 | 0.9

The main list resumes; the 3 compounds before the break are reprinted first.
Molecule	S aureus helic	MgrA DNA FP
COc1ccc(C(=O)NCc2ccc3c(c2)OCO3)cc1	11.0	3.4
CCNC(=O)N1c2cc(C)ccc2C(C)=CC1(C)C	1.0	x
COC(=O)c1c(NC(=O)CCN2C(=O)c3ccccc3C2=O)sc2c1CCC2	x	0.2
N#CCc1nc(-c2ccc(C(F)(F)F)cc2)n[nH]1	1.0	-1.5
COc1ccc(NC(=O)CNc2ccc(C#N)cc2)cc1	-18.0	-2.4
NC(=S)NNc1ccc(Cl)c(Cl)c1	5.0	x
CCCCNS(=O)(=O)c1cccs1	14.0	x
O=C(CC1CCCC1)N1CCCC(c2nc3c(nnn3Cc3ccccc3)c(=O)[nH]2)C1 (stereo unspecified)	-10.0	x
N#Cc1c(OCC(F)(F)F)ccc(S(=O)(=O)N2CCCC2)c1OCC(F)(F)F	x	-1.4
O=C(Cn1cnc([N+](=O)[O-])n1)NCc1ccccc1	x	-1.1
CC(C)(C)CC(=O)NC(=S)Nc1ccccc1	5.0	2.9
COc1cc(-n2cccc2)cc(C(F)(F)F)c1	x	-1.8
CCOC(=O)c1cnc2c(OC)cccc2c1N1CC(C)CC(C)C1 (stereo unspecified)	-2.0	0.3
O=C(Nc1ccccc1)c1cc2n(n1)C(C(F)(F)F)CC(c1ccco1)N2 (stereo unspecified)	-11.0	1.4
CSc1nc2cc(C)nn2c(N)c1C#N	x	-1.0
CNC(=S)N1CCCC1C(=O)Nc1ccc(Cl)cc1 (stereo unspecified)	10.0	1.5
Cn1cc(Br)c(NS(=O)(=O)c2ccccc2C(F)(F)F)n1	x	-0.9
O=C(CSc1nc2cc3c(cc2c(=O)n1CCC(=O)N1CCN(c2ccccc2)CC1)OCO3)c1ccccc1	-10.0	x
O=C(CSc1ncn(-c2ccccc2)n1)Nc1ccc(N2CCOCC2)cc1	-3.0	0.2
O=S(=O)(c1ccc(-n2cccn2)cc1)N1CCn2c1nc1ccccc12	22.0	x
COc1cc2c(cc1OC)-c1n[nH]c(=S)n1C(C)(C)C2	1.0	0.5
Cc1ccc(S(=O)(=O)/N=C(\c2ccccc2)n2nnc3ccccc32)cc1	16.0	x
CC1(C)CC(=O)C2=C(C1)Nc1nc(N)[nH]c(=O)c1C2c1ccc(F)cc1 (stereo unspecified)	-13.0	x
Cc1nn(-c2cccc(C(F)(F)F)c2)c2sc(C(=O)NC3=NCCS3)cc12	-10.0	x
CCc1cccc(NC(=O)CC(=O)Nc2ccc3nc4n(c(=O)c3c2)CCCCC4)c1	8.0	x
Cc1cc(=O)[nH]c(SCC(=O)N2CCc3ccccc32)n1	9.0	x
COc1ccc(NC(=S)NC(=O)COc2ccccc2)cc1	-13.0	0.6
Cc1ccn2cc(CNS(=O)(=O)c3ccc(Cl)s3)nc2c1	0.0	-0.6
CCSc1nnc(-c2ccc(OC)cc2)n1-c1ccccc1	7.0	-1.9
COC(=O)Nc1ccc(S(=O)(=O)N(C)CC(F)(F)C(F)F)cc1	-1.0	x
CN(C(=O)c1ccccc1C(=O)O)C1CCCCC1	-12.0	x
CCOC(=O)c1c(C)c(C#N)c(NC(=O)C(C)(C)C)n1-c1ccccc1	x	-0.1
C=CCNC(=O)c1ccc2c(c1)N(CC)C(=O)c1ccccc1S2	13.0	0.0
CCN1CCN(CCCNC(=O)Cc2ccc(NC(=O)N3CCCCc4ccccc43)cc2)CC1	13.0	x
COc1ccc(Cn2ccc3nc(C)c(C(=O)N4CCN(C)CC4)cc3c2=O)cc1	6.0	x
O=C(CCSc1ccccc1)NC1CC1	17.0	-2.5
CCCCn1c(Cc2ccccc2)nnc1SCC(=O)OCC	7.0	3.4
Cc1ccccc1NC(=O)CC1COc2ccccc2O1 (stereo unspecified)	2.0	-0.2
COc1ccc(C(=O)CSc2nc3ccccc3[nH]2)cc1	16.0	x
O=C(NCCO)c1ccc(N2C(=O)c3ccccc3C2=O)cc1	-1.0	3.0
CC(NC(=O)c1cccs1)C(C)(C)C (stereo unspecified)	18.0	-1.4
CCOC(=O)/C=C(\C)N1N=C(c2ccccc2)CC1c1ccccc1[N+](=O)[O-] (stereo unspecified)	x	2.7
CN(C)/C=C/C=C1\CC/C(=C\C=C\N(C)C)C1=O	-49.0	31.0
O=C1Nc2ccc(Br)cc2C12OCCO2	x	-0.2
O=S(=O)(Nc1nc(SCc2ccc(Cl)cc2)n[nH]1)c1ccc(F)cc1	x	0.5
CCc1ccc(NC(=O)C2CCN(c3ncccn3)CC2)cc1	5.0	-0.4

Some of the compounds tested (hit frequency here may not be typical).
